Source: PubChem BioAssay
GIV Gai3 FP: inhibitors of GIV peptide binding to Galpha-i3, primary screen, biochemical, fluorescence polarization, FITC-GIV GBA peptide, rat Galphai3; hit rate 0.42% among 210,000; 90 min; active compounds read low; scaled: aluminum fluoride 0%, vehicle 100%; percent of control (FP), % (no concentration beside the values);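 active = replicate mean at 85% of control or lower, very high polarization wells dropped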;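 note: wells of about 15 µL received 100 nL stock; the first replicate is given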
Target sequence (P08753 whole entry, looked up): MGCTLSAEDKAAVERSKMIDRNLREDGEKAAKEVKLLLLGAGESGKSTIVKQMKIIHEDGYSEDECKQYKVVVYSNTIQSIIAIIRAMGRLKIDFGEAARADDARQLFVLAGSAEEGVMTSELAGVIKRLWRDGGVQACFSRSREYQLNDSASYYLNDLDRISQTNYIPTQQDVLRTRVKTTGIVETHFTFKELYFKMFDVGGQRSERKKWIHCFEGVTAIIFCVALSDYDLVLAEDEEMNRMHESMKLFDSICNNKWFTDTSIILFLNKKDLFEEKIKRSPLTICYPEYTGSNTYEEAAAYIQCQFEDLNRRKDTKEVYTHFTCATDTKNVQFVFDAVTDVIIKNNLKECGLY
Starred values were filed as active, the others as inactive. Some of the compounds tested, so the mix of outcomes need not match the whole.

SMILES | GIV Gai3 FP
CCOC(=O)CSc1nc2c(sc(=S)n2-c2ccccc2OC)c(=O)n1Cc1ccco1 | 103
CCCCN(CCCC)S(=O)(=O)c1ccc2c(c1)C(=NO)c1cc(S(=O)(=O)N(CCCC)CCCC)ccc1-2 | 106
CC1(C)C(N(O)C(=O)NC2CCCCC2)N(C2CCCCC2)C(=O)N1CCC(=O)NN (stereo not drawn) | 106
CCOc1ccc(-c2[nH]nc3c2C(c2ccc(Cl)cc2)C(C#N)=C(N)O3)cc1OC (stereo not drawn) | 109
Cc1nn(-c2ccc(F)cc2)c2c1c(=O)c(C(=O)NCc1ccc(F)cc1)cn2C | 100
CCCN1C(SCc2ccccc2C)=NS(=O)(=O)c2ccccc21 | 106
O=C(NC1CCCCC1)C1CCCN(S(=O)(=O)c2cc(-c3noc(C4CCC4)n3)cs2)C1 (stereo not drawn) | 101
CN1C(=O)CC(C(=O)Nc2ccc(Br)cc2)SC1=Nc1cccc(F)c1 (stereo not drawn) | 111
O=[N+]([O-])c1c(NCCO)cc(N2CCN(c3ccccc3)CC2)c2nonc12 | 101
CCOC(=O)c1cc(-c2ccccc2)n(CC(=O)N2CCC(C)CC2)c1C | 111
COc1ccccc1NC(=O)c1ccc2c(=O)n(Cc3cccc(Br)c3)c(=S)[nH]c2c1 | 106
Cc1cc(C)c(S(=O)(=O)Cc2nc(-c3ccccc3)no2)cc1C | 101
Cc1ccc(-c2nc(CSCC(N)=O)no2)cc1 | 102
Cc1cccn2c(=O)cc(COc3ccccc3NC(=O)Nc3cccc(Cl)c3)nc12 | 104
O=C1/C(=C/c2ccc(Br)cc2)CCC/C1=C\c1ccc(Br)cc1 | 114
COc1ccc(OC)c(N2C(N)=C(C#N)C(c3ccc4c(c3)OCO4)C3=C2CC(C)(C)CC3=O)c1 (stereo not drawn) | 111
O=C(c1csc(S(=O)(=O)N2CCOCC2)c1)N1CCCC1 | 104
Cc1ccc(-c2nc(CSCC(=O)NCC(C)C)no2)cc1 | 104
Cc1nc(-c2csc(S(=O)(=O)N(C)Cc3ccccc3)c2)no1 | 99
COc1cc(OC)c(NC(=O)CSc2nc3[nH]ncc3c(=O)n2-c2ccccc2OC)cc1Cl | 106
CCCS(=O)(=O)NC1CCN(C2=NS(=O)(=O)C(c3ccc(C)c(C)c3)=C2C)CC1 | 107
COC(=O)c1c(-c2ccc(F)cc2)noc1NCc1cc(Br)ccc1OC | 102
COc1cc(SC)ccc1C(=O)Nc1ccc2c(c1)N(C(C)=O)c1ccccc1CC2 | 109
O=C(Nc1ccc(F)cc1)c1nnc(C2CCCN(C(=O)c3ccc(Cl)cc3)C2)s1 (stereo not drawn) | 111
Cc1cccc(N(CC(=O)Nc2c(C)n(C)n(-c3ccccc3)c2=O)S(=O)(=O)c2ccccc2)c1C | 104
(continued)
SMILES | GIV Gai3 FP
CCC(=O)Nc1cccc(-c2noc(C3CCCN(C(=O)CCc4ccccc4)C3)n2)c1 (stereo not drawn) | 105
Cc1c(Cl)cccc1S(=O)(=O)N1CCCN(c2nc3cccnc3s2)CC1 | 118
COc1ccc(N2CCN(S(=O)(=O)c3cccc4nsnc34)CC2)cc1 | 105
Cc1cc2nc(COc3ccc(Cl)cc3NC(=O)CC(C)C)cc(=O)n2o1 | 106
Brc1ccc(-c2noc(CSc3nccn3-c3ccccc3)n2)cc1 | 104
Cc1nn(-c2ccc3nnc(C)n3n2)c2c1C(c1ccc(OC3CCCC3)cc1)CC(=O)N2 (stereo not drawn) | 97
CC1CCCCN1c1nc(-c2ccc([N+](=O)[O-])cc2)nc2ccccc12 (stereo not drawn) | 101
CN(CCc1noc(-c2ccc(C(=O)NCc3cccc(Cl)c3)cc2)n1)C(=O)Nc1ccccc1 | 108
CN(C)C(=O)C1=CCN(C(=O)NC(C)(C)C)CC1 | 102
CCCCCCCCN1/C(=C/C=C/c2n(CCCCCCCC)c3cc(Cl)c(Cl)cc3[n+]2CCCCC)N(CCCCC)c2cc(Cl)c(Cl)cc21 | 144
Cc1ccc(C(=O)Nc2ccc(C(=O)N3CCC(C(=O)NCCC(C)C)CC3)cc2)cc1 | 107
Cc1nc(-c2cc(S(=O)(=O)Nc3cccc(Cl)c3C)c(C)s2)sc1C | 103
CCOc1ccc(C2CC(=O)NC(SCC(=O)OCc3ccccc3)=C2C#N)cc1 (stereo not drawn) | 110
O=S(=O)(Nc1cc2c3c(oc2c2ccccc12)CCCC3)c1ccccc1 | 106
COC(=O)C1=C(C(=O)OC)SC(=C2C(=S)C(C)(C)N(C(=O)CN3C(=O)CCC3=O)c3ccc(OC)cc32)S1 | 107
COc1cccc(-c2nc(-c3ccc(OC)c(OC)c3OC)[nH]c2-c2cccc(OC)c2)c1 | 105
N#CC1=CN(c2ccc(F)cc2Br)c2cc(F)ccc2S1(=O)=O | 101
Cc1nc2cc(-c3noc(-c4ccc(Br)cc4)n3)ccc2o1 | 97
CC1(C)CC(=O)c2cc(C(=O)N3CCOCC3)c(=O)n(-c3ccccc3)c2C1 | 118
N#Cc1c(NC(=O)CO/N=C/c2ccccc2Cl)oc(-c2ccccc2)c1-c1ccccc1 | 108
O=C(NCc1cccs1)C1CC(=O)N(c2ccc3c(c2)CCN3C(=O)C2CC2)C1 (stereo not drawn) | 101
Cc1ccc2c(c1)C(=O)c1cc3ccccc3nc1-2 | 108
O=C(Nc1cc(Cl)ccc1Oc1ccc2ccccc2c1Br)c1cc(Cl)cc(Cl)c1O | 107
COc1ccc(OC)c2sc(N3CCN(C(=O)C4=COCCO4)CC3)nc12 | 107
O=C(Nc1ccc(-c2noc(-c3cccs3)n2)cc1)c1ccc(Br)o1 | 113
Next structures.
SMILES | GIV Gai3 FP
O=C1CN(Cc2ccccc2Cl)S(=O)(=O)c2ccccc2N1Cc1cccc(F)c1 | 113
O=S(=O)(c1cn(Cc2noc(/C=C/c3ccccc3)n2)cn1)N1CCOCC1 | 101
Cc1ccc(-c2nc(Cn3nnc(-c4nc(-c5ccc(Br)cc5)no4)c3C)c(C)o2)cc1 | 103
O=C1c2ccc([N+](=O)[O-])cc2C(=O)N1C1C(=O)N(c2ccc(Br)cc2)C1c1cccs1 (stereo not drawn) | 104
Cc1c(N=Cc2ccc(F)cc2)c(=O)n(-c2ccccc2)n1C | 110
O=C1CC(c2noc(C3CCC3)n2)CN1c1ccccc1 (stereo not drawn) | 103
N=C1S/C(=C/c2ccc(-c3cccc(F)c3)o2)C(=O)N1c1nccs1 | 106
CCOC(=O)c1[nH]c(C)c(CN(Cc2ccc(OC)cc2)S(=O)(=O)c2ccccc2C)c1C | 96
CCN(CC)C(=O)c1ccc(-c2nc3cc(NS(=O)(=O)c4ccc(F)cc4)ccc3n2C)cc1 | 105
O=C(CSc1nc2ccccc2n1S(=O)(=O)c1ccccc1)Nc1ccc([N+](=O)[O-])cc1Cl | 100
O=C(C1CCN(c2nc(-c3ccccc3)no2)CC1)N1CCOCC1 | 100
Cc1ccc(-c2nc(CSCC(=O)NC(C)C)no2)cc1 | 105
Cc1ccccc1NC(=O)c1nc2ccccc2n(C)c1=O | 104
CC(C)(C)c1cc(CN(CCO)CCO)cc(C(C)(C)C)c1O | 105
Cc1ccc(-c2c(C(=O)Nc3cc(-c4nc5ncccc5o4)ccc3C)oc(=O)c3ccccc23)cc1 | 100
CCOc1ccc(C2C(C#N)=C(SCC(=O)Nc3ccc(NC(C)=O)cc3)NC3=C2C(=O)CCC3)cc1 (stereo not drawn) | 106
O=C(c1nnc(-c2cc(S(=O)(=O)NC3CCCCC3)c[nH]2)o1)N1CCCC1 | 111
O=C(Nc1ccc(N2CCN(Cc3ccc4c(c3)OCO4)CC2)c(C(=O)O)c1)c1ccc(Cl)cc1 | 105
N#CC1=C(N)OC2=C(C(=O)CCC2)C1c1ccc(C2C(C#N)=C(N)OC3=C2C(=O)CCC3)cc1 (stereo not drawn) | 110
CCOc1ccc(N2C(=O)C(C)SC23C(=O)N(CN2CCN(c4ccc(F)cc4)CC2)c2ccccc23)cc1 (stereo not drawn) | 98
Cc1ccc(C2OC3(C(=O)c4ccccc4C3=O)C3C(=O)N(c4ccccc4C(F)(F)F)C(=O)C23)cc1 (stereo not drawn) | 118
COc1ccc(C2Nc3ccccc3C(=O)N2Cc2ccco2)cc1COc1ccc(NC(C)=O)cc1 (stereo not drawn) | 99
CCC(C)C(=O)N1c2ccccc2C(C)(c2ccccc2)CC1(C)C (stereo not drawn) | 106
COc1ccc(OC)c(C2C3=C(Nc4c2c(=O)n(C)c(=O)n4C)c2ccccc2C3=O)c1 (stereo not drawn) | 113
CC(=O)N1CCc2c(sc(NC(=O)C3COc4ccccc4O3)c2-c2nc3ccccc3s2)C1 (stereo not drawn) | 104

Gathered by group, the compounds so far containing an aryl thioether with sulfur outside any ring (five)
SMILES | GIV Gai3 FP
CCOC(=O)CSc1nc2c(sc(=S)n2-c2ccccc2OC)c(=O)n1Cc1ccco1 | 103
COc1cc(OC)c(NC(=O)CSc2nc3[nH]ncc3c(=O)n2-c2ccccc2OC)cc1Cl | 106
COc1cc(SC)ccc1C(=O)Nc1ccc2c(c1)N(C(C)=O)c1ccccc1CC2 | 109
Brc1ccc(-c2noc(CSc3nccn3-c3ccccc3)n2)cc1 | 104
O=C(CSc1nc2ccccc2n1S(=O)(=O)c1ccccc1)Nc1ccc([N+](=O)[O-])cc1Cl | 100

Compounds listed so far containing a nitro group on carbon:
SMILES | GIV Gai3 FP
O=[N+]([O-])c1c(NCCO)cc(N2CCN(c3ccccc3)CC2)c2nonc12 | 101
CC1CCCCN1c1nc(-c2ccc([N+](=O)[O-])cc2)nc2ccccc12 (stereo not drawn) | 101
O=C1c2ccc([N+](=O)[O-])cc2C(=O)N1C1C(=O)N(c2ccc(Br)cc2)C1c1cccs1 (stereo not drawn) | 104
O=C(CSc1nc2ccccc2n1S(=O)(=O)c1ccccc1)Nc1ccc([N+](=O)[O-])cc1Cl | 100

Later entries.
SMILES | GIV Gai3 FP
O=C(CCS(=O)(=O)c1ccccc1)Nc1nc(-c2ccccn2)cs1 | 101
CCOc1ccc2c(c1)C(=NO)c1cc(OCC)ccc1-2 | 102
Cc1noc(C)c1C1CCCN1C(=O)C1CCCC1 (stereo not drawn) | 99
CCC(C)NC(=O)c1ccc(-c2cccc(C)c2)nc1 (stereo not drawn) | 105
CCN(CC)C(=O)C1CCCN(c2ncnc3c2cnn3-c2cccc(C)c2)C1 (stereo not drawn) | 104
Cn1c(=O)c(C(=O)N2CCN(c3ccccc3)CC2)nc2ccccc21 | 105
NS(=O)(=O)c1ccc(NC(=O)C2(c3ccc(Cl)cc3)CCCC2)cc1 | 102
O=C(c1ccc2c(c1)OCO2)N1CCN(Cc2noc3ccccc23)CC1 | 107
C#CCOc1ccc(C2CC(=O)Nc3c2c(C)nn3-c2nc3ccc(OC)cc3s2)cc1OC (stereo not drawn) | 103
Cc1oc2c(c1-c1ccccc1)c(=O)oc1ccccc12 | 118
CC1(C)CC(=O)C2=C(C1)Nc1ccccc1N(C(=O)NCC1CCCO1)C2c1ccc(F)cc1 (stereo not drawn) | 97
Cc1ccc(N2C(=O)C(N3C(=O)c4ccccc4C3=O)C2c2ccc(F)cc2)cc1F (stereo not drawn) | 113
CCCCNc1nc(SCC(=O)NCc2ccc(C)cc2)nc2ccccc12 | 113
CC(C)n1c(Sc2nccn2C)nc2c1c(=O)n(C)c(=O)n2C | 98
COc1ccc(NC(=O)c2ccc3c(=O)n(-c4ccc(OC)c(OC)c4)c(=S)[nH]c3c2)cc1Cl | 115
COc1ccc(C=Nc2c(C)n(C)n(-c3ccccc3)c2=O)cc1O | 110
CC(=O)NCCN1C(=O)C(=O)/C(=C(\O)c2ccccc2)C1c1ccccc1 (stereo not drawn) | 106
O=C(NCc1ccc2c(c1)OCO2)c1ccc(C2Nc3ccccc3S(=O)(=O)N2)cc1 (stereo not drawn) | 99
Cc1ccc(C)c(NC(=O)Nc2cccc(CCc3nc4ccccc4n3C)c2)c1 | 99
COc1ccc(C2(O)CN(c3ccc(C)cc3)C3=[N+]2CCCC3)cc1 (stereo not drawn) | 101
CCOC(=O)c1cccc(-n2c(C)cc(/C=C3/C(=O)N(c4ccccc4)N=C3C)c2C)c1 | 105
O=C(Nc1ccc(Cl)cc1C(F)(F)F)c1cc(S(=O)(=O)NCc2ccc3c(c2)OCO3)ccc1F | 99
CCc1ccc(N2C3=[N+](CCCCC3)CC2(O)c2ccc([N+](=O)[O-])cc2)cc1 (stereo not drawn) | 124
CN(C)C(=O)CN1CCN(C2CCCC2)CC1 | 97
COc1ccc(C(=O)N(Cc2cccnc2)c2nc3ccc(Cl)cc3s2)cc1OC | 101
Next records:
SMILES | GIV Gai3 FP
CCc1ccc(NC(=O)CSC2=C(C#N)C(c3ccccc3Cl)C(C(=O)OC)=C(C)N2)cc1 (stereo not drawn) | 99
Cc1ccc2c(c1)-c1nc3c(C)cccc3cc1C2=Nc1ccccc1 | 107
O=C(CCCn1c(SCc2cc(=O)n3cc(Cl)ccc3n2)nc2ccccc2c1=O)NCCc1ccccc1 | 109
CCOC(=O)C(C)Oc1cc(OC(C)C(=O)OCC)c2c3c(c(=O)oc2c1)CCCC3 (stereo not drawn) | 107
Cc1noc(C)c1S(=O)(=O)N1CCC(CC(=O)NCCc2c[nH]c3ccccc23)CC1 | 103
CN1CCc2c(sc(NC(=O)C3CC3)c2-c2nc3ccccc3s2)C1 | -3.2*
CCC(=O)N1CCc2cc(N3CC(C(=O)N4CCN(C(C)C)CC4)CC3=O)ccc21 (stereo not drawn) | 73*
COc1cccc(-c2ccc(=O)n(CCc3nc(-c4cccc(Br)c4)no3)n2)c1 | 101
CCN(CC)C(=O)C1CCCN(c2ncnc3c2cnn3-c2ccc(OC)cc2)C1 (stereo not drawn) | 106
